Sa growth inh = S. aureus growth inhibition at 42 and 30 °C, primary screen, LtaS inhibitor project, RN4220, two temperatures. OD600, 20 h, 42 °C; hits give low values. relative growth, % (no concentration beside the values). 170,000 compounds, 0.53% hits. AID 720641, 2013;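 active = growth at 42 °C up to 50% and 20 or more points under that at 30 °C, or under 10% at both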;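 also: 300 nL library stock went into each well; scaled to the means of positive and negative controls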
HCMV NEC inh = inhibitors of HCMV UL50-UL53 interaction, biochemical, HTRF; HCMV UL50-UL53 nuclear egress complex (human cytomegalovirus); normalized percent inhibition; inhibition, % (test concentration not listed); 190,000 compounds, 0.15% hits; AID 1918969, 2023;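 active = both replicates at 50% or more, plus weaker picks with an unusually low signal ratio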;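 also: stock transfer was 100 nL into about 20 µL; 0% = negative control wells and 100% = wells with untagged competitor protein; inactives centre near -12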
GIV Gai3 FP = inhibitors of GIV peptide binding to Galpha-i3, primary screen, biochemical, fluorescence polarization, FITC-GIV GBA peptide, rat Galphai3 | Guanine nucleotide-binding protein G(i) subunit alpha-3 (Rattus norvegicus), P08753 | 90 min; hits give low values; scaled: aluminum fluoride 0%, vehicle 100% | percent of control (FP), % (concentration not given with the values) | 210,000 compounds, 0.42% hits;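 active = replicate mean at 85% of control or lower, very high polarization wells dropped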;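 also: wells of about 15 µL received 100 nL stock; the first replicate is given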
Target sequence (P08753 whole entry, looked up): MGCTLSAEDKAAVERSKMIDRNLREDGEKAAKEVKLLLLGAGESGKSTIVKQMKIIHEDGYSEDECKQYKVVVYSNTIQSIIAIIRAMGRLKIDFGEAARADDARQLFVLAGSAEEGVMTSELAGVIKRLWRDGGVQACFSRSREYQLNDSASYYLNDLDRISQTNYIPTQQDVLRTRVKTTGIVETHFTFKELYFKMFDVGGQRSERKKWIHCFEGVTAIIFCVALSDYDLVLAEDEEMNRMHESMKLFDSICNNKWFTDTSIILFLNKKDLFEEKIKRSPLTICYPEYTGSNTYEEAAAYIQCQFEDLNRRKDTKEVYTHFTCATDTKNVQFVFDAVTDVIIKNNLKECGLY
Sa growth inh second temp = also measured in Sa growth inh; calls as there; relative growth, %; measured here: growth at 30 °C;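 optical density after 20 h as mean of two plates; 100% = untreated growth and lower means inhibition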
* marks the source's active call; other numbers are inactive results.

C(#Cc1ccc(-c2ccn[nH]2)cc1)c1ccccc1 was read as Sa growth inh 71, HCMV NEC inh 1, GIV Gai3 FP 99 and Sa growth inh second temp 65.
`C=CCN(CC(=O)O)S(=O)(=O)c1ccccc1C(F)(F)F` gave Sa growth inh 111, HCMV NEC inh -4 and Sa growth inh second temp 84.
For CC1=C(C(=O)OCc2ccccc2)C2(C(=O)Nc3ccccc32)C(C(=O)OCc2ccccc2)=C(N)O1 (stereo unspecified) the results were HCMV NEC inh -10 and GIV Gai3 FP 104.
`CCn1cc(C(=O)OCC(=O)Nc2cc(Cl)ccc2OC)c(=O)c2ccc(C)nc21` gave Sa growth inh 97, HCMV NEC inh -9, GIV Gai3 FP 104 and Sa growth inh second temp 91.
Screening O=C(CC1(O)C(=O)N(CCc2ccccc2)c2ccc(Cl)cc21)c1ccccc1 (stereo unspecified) returned Sa growth inh 69, HCMV NEC inh -28 and Sa growth inh second temp 41.
Screening O=C(c1ccccc1)C1CCN(S(=O)(=O)c2cc(C(F)(F)F)cc(C(F)(F)F)c2)CC1 returned Sa growth inh 87, HCMV NEC inh -5, GIV Gai3 FP 99 and Sa growth inh second temp 101.
Screening CCCC(=O)N1c2ccccc2NC2=C(C(=O)CCC2)C1c1ccc(OC)c(OC)c1 (stereo unspecified) returned Sa growth inh 102, GIV Gai3 FP 101 and Sa growth inh second temp 88.
Cc1cc(=O)oc2cc(NC(=O)C3COc4ccccc4O3)ccc12 (stereo unspecified) was read as Sa growth inh 106, HCMV NEC inh 0 and Sa growth inh second temp 94.
For CC(=O)N1CCCc2cc(S(=O)(=O)N3CCCC(C(=O)Nc4cccc(Cl)c4C)C3)ccc21 (stereo unspecified) the results were Sa growth inh 105, GIV Gai3 FP 98 and Sa growth inh second temp 86.
CCn1nnc(NCc2ccc(-c3cccc(Cl)c3)o2)n1 was read as HCMV NEC inh -4 and GIV Gai3 FP 96.
`CSC(SC)=C(C#N)C(=O)c1ccccc1Cl` gave Sa growth inh 102, HCMV NEC inh -13, GIV Gai3 FP 95 and Sa growth inh second temp 90.
CSc1ccccc1C(=O)c1ccccc1C(=O)O was read as Sa growth inh 110, HCMV NEC inh 2, GIV Gai3 FP 110 and Sa growth inh second temp 89.
Screening Cc1cc(C(=O)COc2ccc(Cl)cc2Br)c(C)n1C returned Sa growth inh 94, HCMV NEC inh -11 and Sa growth inh second temp 98.
For Cc1c(NC(=O)CCCN2C(=O)c3cccc4cccc(c34)C2=O)c(=O)n(-c2ccccc2)n1C the results were HCMV NEC inh -54 and GIV Gai3 FP 108.
For Cc1ccc(O)c(C(CC(=O)NC2CCCCC2)c2ccccc2)c1 (stereo unspecified) the results were Sa growth inh 100, HCMV NEC inh -4, GIV Gai3 FP 102 and Sa growth inh second temp 92.
CCCc1cc(-c2[nH]ncc2-c2ccc3c(c2)OCCCO3)c(O)cc1O was read as Sa growth inh 17, HCMV NEC inh -27, GIV Gai3 FP 108 and Sa growth inh second temp 14.
For CC(SCC(=O)Nc1ccc(S(=O)(=O)N(C)C)cc1)C(=O)O (stereo unspecified) the results were Sa growth inh 103, HCMV NEC inh -3 and Sa growth inh second temp 91.
CCC(=O)NCCc1cc2cc(C)c(C)cc2[nH]c1=O was read as Sa growth inh 90, GIV Gai3 FP 98 and Sa growth inh second temp 85.
`CCN(CC)Cc1cc(C(=O)O)c(-c2ccccc2)o1` gave Sa growth inh 94, HCMV NEC inh -4 and Sa growth inh second temp 84.
`Cc1cc(N=Cc2c(O)n(-c3ccc(C)c(C)c3)c(=O)c3ccccc23)no1` gave Sa growth inh 103, HCMV NEC inh -2 and Sa growth inh second temp 92.
Cc1cc2c(c(SCc3ccccc3Cl)n1)C(=O)OC2 was read as Sa growth inh 102, HCMV NEC inh -9, GIV Gai3 FP 101 and Sa growth inh second temp 82.
For Cc1c(N2CCCC2)cc2c(c1N)C(C)(C)CC2(C)C the results were Sa growth inh 76, HCMV NEC inh -1, GIV Gai3 FP 97 and Sa growth inh second temp 84.
CCc1ccc(OCCCC(=O)O)c(Br)c1 was read as Sa growth inh 112, HCMV NEC inh -6, GIV Gai3 FP 109 and Sa growth inh second temp 107.
`O=c1[nH]nc(SCc2cccc3ccccc23)c(=O)[nH]1` gave Sa growth inh 84, HCMV NEC inh -1, GIV Gai3 FP 85* and Sa growth inh second temp 109.
`COC(=O)c1ccc(NC(=O)CNC2CCCCCC2)cc1` gave Sa growth inh 92, HCMV NEC inh -23 and Sa growth inh second temp 97.
`CC(C)(C)C(=O)CC(=O)Nc1ccc(Cl)c(N)c1` gave Sa growth inh 103, HCMV NEC inh -14, GIV Gai3 FP 104 and Sa growth inh second temp 100.
For COc1cccc(CNC(=O)CSC)c1 the results were Sa growth inh 88, HCMV NEC inh -12 and Sa growth inh second temp 92.
For O=C(Oc1ccc2c(c1)OCO2)[C@@H]1CCCN1S(=O)(=O)c1ccc(Cl)cc1 the results were Sa growth inh 104, HCMV NEC inh 2 and Sa growth inh second temp 94.
Screening O=C(CN1CCN(Cc2ccccc2Cl)C1=O)NCc1ccccc1Cl returned Sa growth inh 117, HCMV NEC inh -13, GIV Gai3 FP 104 and Sa growth inh second temp 81.
Screening Cc1cc(C)c2c(=O)c3c(oc2c1)C(=O)N(CCCOC(C)C)C3c1ccccc1F (stereo unspecified) returned Sa growth inh 97, HCMV NEC inh -20, GIV Gai3 FP 97 and Sa growth inh second temp 86.
COc1ccc(N2C(=O)CC(Sc3nc(CC(C)C)ccc3C#N)C2=O)cc1 (stereo unspecified) was read as HCMV NEC inh -68 and GIV Gai3 FP 106.
`Cc1ccccc1-c1noc(CSc2ccc(-c3ccc4c(c3)OCO4)nn2)n1` gave HCMV NEC inh -4 and GIV Gai3 FP 110.
`CCCCNC(=O)c1nn(-c2ccc(C)cc2)c(=O)n(C)c1=O` gave Sa growth inh 105, GIV Gai3 FP 100 and Sa growth inh second temp 90.
`CN1C(=S)N(C2CCCCC2)C(=O)/C1=C/c1ccc(-c2ccc(Br)cc2)o1` gave Sa growth inh 92, HCMV NEC inh -30, GIV Gai3 FP 191 and Sa growth inh second temp 82.
O=C1c2ccccc2C(O)(c2ccccc2)N1C1CCCC1 (stereo unspecified) was read as Sa growth inh 95, HCMV NEC inh -26, GIV Gai3 FP 99 and Sa growth inh second temp 101.
`CC(C)CC(=O)N1CCN(c2ccc(F)cc2)CC1` gave Sa growth inh 106, HCMV NEC inh -2, GIV Gai3 FP 106 and Sa growth inh second temp 79.
For CCS(=O)(=O)c1ccc(OCc2cc(=O)n3oc(C)cc3n2)c(NC(C)=O)c1 the results were HCMV NEC inh -7 and GIV Gai3 FP 98.
FC(F)Oc1ccc(NC(=S)NC2CCCC2)cc1 was read as Sa growth inh 116, HCMV NEC inh -8 and Sa growth inh second temp 88.
CC(C)c1ccc2oc(-c3ccc(Cl)c(NC(=O)c4cccs4)c3)nc2c1 was read as Sa growth inh 76, HCMV NEC inh -14, GIV Gai3 FP 100 and Sa growth inh second temp 92.
`CCOc1ccc(C2c3[nH]c4ccccc4c3CCN2C(=O)Cc2cccc(OCC)c2OCC)cc1` (stereo unspecified) gave Sa growth inh 95, GIV Gai3 FP 102 and Sa growth inh second temp 104.
`N#CCSc1ncc(C(F)(F)F)cc1Cl` gave HCMV NEC inh -11 and GIV Gai3 FP 103.
`CN(C)S(=O)(=O)N1CCN(C(=O)c2ccco2)CC1` gave Sa growth inh 88, HCMV NEC inh -9, GIV Gai3 FP 100 and Sa growth inh second temp 88.
For CS(=O)(=O)c1nc(Oc2cccc(C(F)(F)F)c2)cc(Oc2cccc(C(F)(F)F)c2)n1 the results were Sa growth inh 32*, HCMV NEC inh -3 and Sa growth inh second temp 65*.
Screening N#Cc1c(Cl)cccc1N1CCC(C(=O)N/C=N/O)CC1 returned Sa growth inh 94, HCMV NEC inh 11, GIV Gai3 FP 109 and Sa growth inh second temp 98.
Screening Cc1ccccc1OCC(=O)N1CCCc2ccccc21 returned Sa growth inh 98, HCMV NEC inh 11, GIV Gai3 FP 99 and Sa growth inh second temp 93.
Screening CCCNC(=O)COc1ccc(Br)cc1C returned Sa growth inh 80, HCMV NEC inh -4, GIV Gai3 FP 101 and Sa growth inh second temp 90.
O=C(Cc1cccs1)Nc1noc2ccccc12 was read as Sa growth inh 118, GIV Gai3 FP 115 and Sa growth inh second temp 79.
Screening CCOc1ccc(NC(=O)Cc2ccccc2OC)cc1 returned Sa growth inh 85, HCMV NEC inh -18 and Sa growth inh second temp 86.
COc1cc(C2NC(=O)NC(C)=C2C(=O)OCC2CCCCC2)ccc1OCc1ccccc1 (stereo unspecified) was read as HCMV NEC inh -3 and GIV Gai3 FP 102.
For Cc1csc(-c2nonc2N)n1 the results were Sa growth inh 110, HCMV NEC inh -15 and Sa growth inh second temp 92.
For CCN(CC)c1ccc(C(=O)OCC(=O)c2ccc(OC(F)F)cc2)cc1 the results were Sa growth inh 77, HCMV NEC inh -18 and Sa growth inh second temp 85.
O=C(NCCN1C(=O)CSC1=O)c1ccccc1 was read as Sa growth inh 88, HCMV NEC inh -14 and Sa growth inh second temp 83.
`CCOC(=O)C1=C(C)NC(=S)NC1c1ccc(OCC(=O)N2CCCCC2)cc1` (stereo unspecified) gave Sa growth inh 89, HCMV NEC inh 5 and Sa growth inh second temp 84.
For Cc1ccc(CNC(=O)c2cn(C)c3ccc(S(=O)(=O)N4CCCC4)cc3c2=O)cc1 the results were Sa growth inh 94, HCMV NEC inh -19, GIV Gai3 FP 101 and Sa growth inh second temp 90.
For Cc1ccc(-n2nnc(S(=O)(=O)c3ccc(C)cc3)c2N)cc1 the results were Sa growth inh 110, HCMV NEC inh -2, GIV Gai3 FP 102 and Sa growth inh second temp 108.
CC(=O)NCCC(=O)Nc1ccc(OC(F)F)cc1 was read as Sa growth inh 82, HCMV NEC inh -5 and Sa growth inh second temp 90.
`CC(=Nc1ccccc1)Nc1ccccc1` gave Sa growth inh 98, HCMV NEC inh -1, GIV Gai3 FP 97 and Sa growth inh second temp 107.
Screening O=C(OCCN=C1NS(=O)(=O)c2ccccc21)c1ccc(S(=O)(=O)N2CCOCC2)cc1 returned HCMV NEC inh 3 and GIV Gai3 FP 105.
CCC1S/C(=N\S(=O)(=O)c2ccccc2)N(c2ccccc2)C1=O (stereo unspecified) was read as Sa growth inh 98, HCMV NEC inh -5 and Sa growth inh second temp 91.
`O=C(C1CCN(c2ccc(N3CCOCC3)nn2)CC1)N1CCN(c2ccccc2)CC1` gave Sa growth inh 87, HCMV NEC inh 2, GIV Gai3 FP 103 and Sa growth inh second temp 91.

As a short view, 10 of the compounds above.
Screening CCOc1ccc(NC(=O)Cc2ccccc2OC)cc1 returned Sa growth inh 85, HCMV NEC inh -18 and Sa growth inh second temp 86.
COc1cc(C2NC(=O)NC(C)=C2C(=O)OCC2CCCCC2)ccc1OCc1ccccc1 (stereo unspecified) was read as HCMV NEC inh -3 and GIV Gai3 FP 102.
For Cc1csc(-c2nonc2N)n1 the results were Sa growth inh 110, HCMV NEC inh -15 and Sa growth inh second temp 92.
For CCN(CC)c1ccc(C(=O)OCC(=O)c2ccc(OC(F)F)cc2)cc1 the results were Sa growth inh 77, HCMV NEC inh -18 and Sa growth inh second temp 85.
O=C(NCCN1C(=O)CSC1=O)c1ccccc1 was read as Sa growth inh 88, HCMV NEC inh -14 and Sa growth inh second temp 83.
`CCOC(=O)C1=C(C)NC(=S)NC1c1ccc(OCC(=O)N2CCCCC2)cc1` (stereo unspecified) gave Sa growth inh 89, HCMV NEC inh 5 and Sa growth inh second temp 84.
For Cc1ccc(CNC(=O)c2cn(C)c3ccc(S(=O)(=O)N4CCCC4)cc3c2=O)cc1 the results were Sa growth inh 94, HCMV NEC inh -19, GIV Gai3 FP 101 and Sa growth inh second temp 90.
For Cc1ccc(-n2nnc(S(=O)(=O)c3ccc(C)cc3)c2N)cc1 the results were Sa growth inh 110, HCMV NEC inh -2, GIV Gai3 FP 102 and Sa growth inh second temp 108.
CC(=O)NCCC(=O)Nc1ccc(OC(F)F)cc1 was read as Sa growth inh 82, HCMV NEC inh -5 and Sa growth inh second temp 90.
`CC(=Nc1ccccc1)Nc1ccccc1` gave Sa growth inh 98, HCMV NEC inh -1, GIV Gai3 FP 97 and Sa growth inh second temp 107.

Next records follow:
For CCOc1ccc(-c2nc(CSCC(=O)N3CCN(c4ccc(F)cc4)CC3)c(C)o2)cc1 the results were Sa growth inh 107, GIV Gai3 FP 102 and Sa growth inh second temp 97.
Screening CCN(CC)C(=O)c1sc(NC(=O)C2c3ccccc3Oc3ccccc32)c(C(=O)OC(C)C)c1C returned Sa growth inh 113, HCMV NEC inh 13, GIV Gai3 FP 107 and Sa growth inh second temp 107.
CC(O)c1ccc(F)cc1 (stereo unspecified) was read as Sa growth inh 96, HCMV NEC inh 1 and Sa growth inh second temp 92.
COc1ccccc1N(CC(=O)N1CCN(c2ccccc2)CC1)S(C)(=O)=O was read as HCMV NEC inh -16 and GIV Gai3 FP 101.
C=CCn1nnc(NCc2ccc(-c3ccc(Cl)cc3Cl)o2)n1 was read as HCMV NEC inh -11 and GIV Gai3 FP 97.

Screens deposited in PubChem BioAssay by ICCB-Longwood Screening Facility, Harvard Medical School.
